Source: PubChem
Ecoli rRNA inh: reduced GFP signal of wild-type E. coli, primary screen, bacterial rRNA inhibitor project, GFP/RFP fluorescence, OD600, single point; GFP signal change (wild-type ribosome), % (concentration not given with the values); E. coli WT GFP vs humanized-ribosome RFP mutants, 24 h; active compounds read low; DMSO median 0, no signal -100; 350,000 tested, 1.6% active;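 active = significant combined selectivity score with lowered wild-type GFP, culture density cut under 30%, mutant RFP and density less affected; inactive = any of these conditions unmet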; also: one replicate is shown; some compounds called inactive have numbers as strong as hits
AF4-AF9 inh: inhibitors of AF4 peptide binding to AF9, primary screen, biochemical, AlphaScreen, biotin-AF4 peptide, FLAG-AF9, single point. inhibition, % at 10 µM. 350,000 tested, 0.47% active. Protein AF-9 (Homo sapiens), P42568. AID 651704, 2012;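 active = every replicate reaching a set inhibition limit, whatever the replicate mean, cut at about 25% in these data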;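 also: 0% = plate neutral control median and 100% = total signal loss; the record names both 10 and 1 µM as test concentration; the first replicate is given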
Target sequence (P42568 whole entry, looked up): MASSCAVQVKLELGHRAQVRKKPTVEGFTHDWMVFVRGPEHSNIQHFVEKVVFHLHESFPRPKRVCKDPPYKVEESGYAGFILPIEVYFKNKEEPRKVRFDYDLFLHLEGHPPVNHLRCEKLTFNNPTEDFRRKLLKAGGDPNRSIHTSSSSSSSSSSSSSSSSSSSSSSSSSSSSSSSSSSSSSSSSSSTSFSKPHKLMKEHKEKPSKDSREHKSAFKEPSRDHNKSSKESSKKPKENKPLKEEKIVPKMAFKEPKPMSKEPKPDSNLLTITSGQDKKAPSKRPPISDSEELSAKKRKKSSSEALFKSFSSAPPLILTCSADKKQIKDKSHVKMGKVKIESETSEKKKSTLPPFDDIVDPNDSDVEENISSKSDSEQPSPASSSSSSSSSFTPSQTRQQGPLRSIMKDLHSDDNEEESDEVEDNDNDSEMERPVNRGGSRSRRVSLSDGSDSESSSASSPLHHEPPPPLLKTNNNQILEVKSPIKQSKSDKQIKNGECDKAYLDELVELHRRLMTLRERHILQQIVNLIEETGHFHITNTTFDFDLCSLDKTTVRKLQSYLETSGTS
Ecoli rRNA inh OD600: second read-out of Ecoli rRNA inh, no call of its own (marks repeat the call); OD600 change, %; measured here: OD600 growth;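 optical density of the mix in the first replicate; 0 = DMSO median and -100 = no signal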
Ecoli rRNA inh RFP: second read-out of Ecoli rRNA inh, no call of its own (marks repeat the call); RFP signal change, %; measured here: RFP humanized mutant strains;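 first replicate; 0 = DMSO median and -100 = no signal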
* = called active by the depositor; & = joins results of further samples.

Sequence of screens – Ecoli rRNA inh | Ecoli rRNA inh OD600 | Ecoli rRNA inh RFP | AF4-AF9 inh
C[C@@H]1CN([C@H](C)CO)S(=O)(=O)c2ccc(C#CC3CC3)cc2O[C@H]1CN(C)Cc1ccccc1
  -2 | -12 | 0.2 | 4.9
C[C@@H]1CCCCO[C@H](CN(C)Cc2ccncc2)[C@H](C)CN([C@@H](C)CO)C(=O)c2cc(NC(=O)Nc3ccc4c(c3)OCO4)ccc2O1
  -6 | -9 | 3.6 | 10
Cc1cc(C(=O)Nc2cccc3c2O[C@@H](CN(C)C(=O)NC2CCCCC2)[C@@H](C)CN([C@@H](C)CO)C3=O)n(C)n1
  -9 | -10 | 1.1 | -0.4
COCC#Cc1ccc([C@H]2[C@H](CO)N3CCCCN(S(=O)(=O)c4ccccc4F)C[C@@H]23)cc1
  -2 | -3 | 1.1 | 3.9
N#C[C@H]1[C@@H](c2ccccc2C2=CCCC2)[C@@H](CO)N1C(=O)Cc1ccncc1
  0 | 6 | 0.3 | -1.6
CCCCNC(=O)C1(C)CCN1Cc1ccc(C#N)cc1 (configuration not stated)
  9 | 10 | 1.5 | -0.8
COc1cccc(CNC(=O)[C@H]2[C@H](CO)[C@H]3Cn4c(ccc(-c5cccnc5)c4=O)[C@@H]2N3C(C)=O)c1
  -5 | -8 | -4.5 | 2.5
CC(C)CC#Cc1ccc2c(c1)O[C@@H](CN(C)C(=O)Cc1ccccn1)[C@@H](C)CN([C@H](C)CO)S2(=O)=O
  -3 | -13 | 7.8 | 7.7
O=C1CN(S(=O)(=O)c2ccccc2)C[C@H]2[C@H](c3ccc(C#CCc4ccccc4)cc3)[C@H](CO)N12
  4 | 6 | 1.7 | -7.5
C[C@@H]1CN([C@H](C)CO)C(=O)Cc2cc(NS(C)(=O)=O)ccc2O[C@H]1CN(C)Cc1ccccc1
  0 | 8 | 1.5 | -0.2
C[C@@H]1CN([C@@H](C)CO)C(=O)Cc2cc(NC(=O)c3ccncc3)ccc2O[C@@H]1CN(C)Cc1ccncc1
  -4 | -6 | -1.9 | -2.9
COC(=O)C[C@@H]1C[C@@H]2c3cc(NC(=O)C4CCOCC4)ccc3O[C@@H]2[C@H](CO)O1
  2 | -4 | -0.4 | -0.2
OC(c1ccccc1)(c1nc(-c2cc3ccccc3o2)cs1)C(F)(F)F (configuration not stated)
  -38* | -27* | -8.8* | -2.3
COc1ccccc1CNC(=O)C[C@@H]1CC[C@@H](NC(=O)CN(C)C)[C@H](CO)O1
  1 | -5 | 0.2 | -0.8
O=C(c1ccc2c(c1)OCO2)N1C[C@H]2[C@@H](c3ccccc31)[C@@H](CO)N2CC1CCCC1
  -40 | -69 | 20 | 1.4
CC1(C(=O)NCc2ccccc2)Cc2c(-c3cccc(C(F)(F)F)c3)ccnc2O1 (configuration not stated)
  -24 | -52 | 3.2 | 1.8
C[C@H](CO)N1C[C@H](C)[C@H](CN(C)Cc2ccncc2)Oc2ccc(NC(=O)NC3CCCCC3)cc2C1=O
  -5 | -5 | -1.7 | -1.4
C[C@H](CO)N1C[C@H](C)[C@@H](CN(C)S(C)(=O)=O)Oc2ccc(NS(=O)(=O)c3cccs3)cc2C1=O
  0 | 8 | 0.8 | -1.4
C[C@H](CO)N1C[C@H](C)[C@H](CN(C)Cc2ccccc2)Oc2cc(-c3ccncc3)ccc2S1(=O)=O
  -4 | -8 | 1.1 | 4.9
Cc1ccc(S(=O)(=O)N2CC3C(=O)C[C@@H](c4ccccc4)N(S(=O)(=O)c4cccc(Cl)c4)C3CC2c2ccccc2)cc1 (some centres not stated)
  22 | 16 | 1.8 | -1.5
C[C@@H]1CN([C@H](C)CO)C(=O)c2cc(NS(C)(=O)=O)ccc2O[C@@H](C)CCCCO[C@@H]1CN(C)S(=O)(=O)c1cn(C)cn1
  0 | 10 | 0.4 | -6.4
CO[C@H]1CN(C)C(=O)c2cc(NC(=O)C3CCC3)ccc2OC[C@H](C)NC[C@H]1C
  1 | 1 | -0.6 | -1.6
C[C@H](CO)N1C[C@H](C)[C@H](CN(C)Cc2ccc(Oc3ccccc3)cc2)Oc2ncc(-c3cccnc3)cc2C1=O
  -2 | -10 | 4.5 | 7.8
O=C(N[C@H]1CC[C@H](CCNS(=O)(=O)c2ccc(F)cc2)O[C@H]1CO)C1CCOCC1
  2 | 2 | -0.3 | -0.3
CN(C)CC(=O)N1CC2(C1)[C@H](c1ccccc1)[C@@H](CO)N2S(C)(=O)=O
  2 | 6 | -2.8 | 1.1
CCC(=O)Nc1ccc2c(c1)C(=O)N(C)C[C@H](OC)[C@H](C)CN[C@H](C)CO2
  0 | -10 | -0.5 | -2.4
O=C(C[C@@H]1CC[C@@H](NS(=O)(=O)c2ccccc2F)[C@@H](CO)O1)NCCCN1CCOCC1
  1 | 1 | -2.0 | 0.2
O=C(C1CCCCC1)N1CC2(C1)[C@H](c1ccccc1)[C@@H](CO)N2CC1CCCC1
  -5 | -20 | 21 | -2.8
Cc1ccc(S(=O)(=O)N(C)c2ccc3c(c2)C(=O)c2ccccc2-3)cc1
  5 | 1 | 2.5 | -0.7
C[C@@H]1CN([C@@H](C)CO)C(=O)Cc2cc(NS(=O)(=O)c3ccc(Cl)cc3)ccc2O[C@@H]1CN(C)CC1CCCCC1
  -55 | -76 | -13 | 12
O=C(NCC[C@H]1CC[C@@H](NC(=O)c2ccc3c(c2)OCO3)[C@@H](CO)O1)Nc1cc(F)ccc1F
  -5 | -7 | 3.1 | 9.6
Cc1noc(C)c1NC(=O)Nc1ccc2c(c1)C(=O)N([C@H](C)CO)C[C@@H](C)[C@@H](CN(C)Cc1ccc(C(F)(F)F)cc1)OCCCC[C@H](C)O2
  -1 | -18 | 6.3 | 5.3
COc1ccc(NC(=O)Nc2ccc3c(c2)CC(=O)N([C@H](C)CO)C[C@H](C)[C@H](CN(C)C(=O)Nc2ccccc2)O3)cc1
  2 | 3 | -5.1 | 0.4
Nc1[nH]c(C(=O)c2ccccc2)c(-c2ccncc2)c1C(=O)NC1CC1
  9 | 10 | 2.9 | -1.5
CC(C)(C)S(=O)(=O)N1Cc2ccc(CO)cc2[C@H]1CCO
  25 | 17 | 5.5 | -2.7
O=C(C[C@@H]1CC[C@H](NC(=O)CN2CCOCC2)[C@H](CO)O1)NCCc1ccccc1
  4 | 4 | -0.9 | -0.2
CC(C)NC(=O)N(C)C[C@@H]1Oc2ccc(NS(C)(=O)=O)cc2CC(=O)N([C@H](C)CO)C[C@@H]1C
  2 | 3 | 0.9 | -2.9
COc1ccc(C#Cc2ccc([C@@H]3[C@H](CO)N4CCCCN(C(=O)c5ccncc5)C[C@@H]34)cc2)cc1
  0 | 3 | 11 | 3.8
C[C@@H]1CN([C@H](C)CO)C(=O)c2cc(-c3cncnc3)cnc2O[C@@H]1CN(C)C(=O)Nc1ccc2c(c1)OCO2
  4 | 13 | -1.1 | -2.6
O=C(NC[C@H]1N[C@H](CO)[C@@H]1c1ccc(-c2cncnc2)cc1)c1ccccc1F
  -1 | -3 | -1.1 | -1.6
CCCNC(=O)C[C@H]1C[C@@H]2c3cc(NC(=O)Nc4ccccc4F)ccc3O[C@@H]2[C@@H](CO)O1
  -5 | -9 | 2.3 | -6.9
C[C@H]1CN([C@@H](C)CO)C(=O)CCCn2cc(nn2)CO[C@@H]1CN(C)C(=O)Nc1ccc2c(c1)OCCO2
  7&1 | 11&-5 | -5.5&-1.4 | -0.5&-2.0&1.4
O=C1CN(S(=O)(=O)Cc2ccccc2)C[C@H]2[C@H](c3ccc(C#Cc4ccccc4)cc3)[C@@H](CO)N12
  6 | 0 | -0.9 | -3.3
C[C@@H]1CN([C@H](C)CO)C(=O)c2cc(N(C)C)ccc2O[C@@H](C)CCCCO[C@H]1CN(C)C(=O)c1ccccc1
  3 | -4 | 3.2 | 11
C[C@@H]1CN([C@H](C)CO)C(=O)c2cccc(NC(=O)Nc3ccc(F)cc3)c2O[C@@H]1CN(C)Cc1ccc(C(F)(F)F)cc1
  6 | -16 | -9.0 | 4.2
CCS(=O)(=O)N1CC2(CN(Cc3ccccc3F)[C@@H](CO)c3c2c2ccc(OC)cc2n3C)C1
  -5 | -33 | -5.7 | -1.4
COc1ccc(Cl)cc1C1=NOC2(CCC2)C(=O)N1Cc1ccc(NC(C)=O)cc1
  -1 | 9 | 4.7 | -0.1
CCCNC(=O)Nc1ccc2c(c1)OC[C@H](C)N(CCC(F)(F)F)C[C@@H](C)[C@@H](OC)CN(C)C2=O
  -3 | -5 | -1.4 | -0.8
CCCNC(=O)N1C[C@@H](C)[C@@H](OC)CN(C)C(=O)c2cc(NS(C)(=O)=O)ccc2OC[C@H]1C
  3 | 0 | -2.7 | -2.8
CC(C)CC#Cc1ccc2c(c1)O[C@H](CN(C)C(=O)Nc1ccccc1F)[C@H](C)CN([C@@H](C)CO)S2(=O)=O
  -2 | 0 | 1.0 | 1.7
CO[C@@H]1CN(C)C(=O)c2ccc(NC(=O)NC(C)C)cc2OC[C@@H](C)N(S(C)(=O)=O)C[C@@H]1C
  4 | 4 | 1.5 | -8.4
CCC(=O)N(C)C[C@H]1Oc2cc(C#CC3CCCCC3)ccc2S(=O)(=O)N([C@H](C)CO)C[C@@H]1C
  -5 | -16 | 16 | 6.9
COc1ccc(-c2ccc3c(c2)O[C@@H](CN(C)C(=O)Nc2ccccc2F)[C@H](C)CN([C@@H](C)CO)S3(=O)=O)cc1
  -7 | -18 | 0.2 | 2.1
O=C(Cc1ccncc1)NCC[C@@H]1CC[C@H](NC(=O)C2CCCCC2)[C@H](CO)O1
  3 | 0 | -2.1 | -1.7
C[C@H](CO)N1C[C@H](C)[C@H](CN(C)C)Oc2ccc(NC(=O)Nc3ccccc3)cc2C1=O
  7 | 16 | -0.4 | -0.6
C[C@@H]1CN([C@H](C)CO)C(=O)Cc2cc(NC(=O)Cc3ccccc3)ccc2O[C@@H]1CN(C)Cc1ccc(Oc2ccccc2)cc1
  2 | -5 | -1.2 | 0.8
COc1cccc(S(=O)(=O)Nc2ccc3c(c2)OC[C@@H](C)NC[C@H](C)[C@H](OC)CN(C)C3=O)c1
  1 | 1 | -2.9 | -3.3
CC(C)C[C@H]1CNC(=O)C(=O)N1C[C@H]1CCCN1C[C@H](CC(C)C)N1C[C@H](CC(C)C)N(CCc2ccccc2)C(=O)C1=O
  -33 | -55 | 5.8 | 0.8
CNC[C@H]1Oc2c(NC(=O)c3ccc(-c4nccs4)cc3)cccc2C(=O)N([C@@H](C)CO)C[C@H]1C
  -2 | -6 | -0.1 | -2.7
O=C(C[C@@H]1CC[C@@H](NC(=O)C2CCOCC2)[C@@H](CO)O1)NCC1CCCCC1
  -1 | 5 | 0.9 | -1.7

New compounds follow:
Sequence of screens – Ecoli rRNA inh | Ecoli rRNA inh OD600 | Ecoli rRNA inh RFP | AF4-AF9 inh
C[C@H](CO)N1C[C@H](C)[C@H](CN(C)S(=O)(=O)c2cn(C)cn2)Oc2ccc(NC(=O)C3CCCCC3)cc2CC1=O
  3 | 7 | -0.2 | -2.0
C[C@H]1CN([C@@H](C)CO)C(=O)c2cc(C#Cc3ccccc3F)cnc2O[C@H]1CN(C)S(=O)(=O)c1ccccc1
  -3 | 6 | 0.5 | -1.4
C/C=C/c1ccc([C@H]2[C@@H](CO)N(C(C)=O)[C@H]2CNC(=O)c2ccncc2)cc1
  2 | 11 | -2.7 | 0.6
C[C@H](CO)N1C[C@H](C)[C@H](CN(C)Cc2ccc(-c3ccccc3)cc2)Oc2ccc(NC(=O)Nc3cccc4ccccc34)cc2CC1=O
  1 | 4 | 1.3 | -19
COc1cccc(-c2ccc3c(c2)C2CC3CCN2C(=O)c2ccc(Cl)cc2)c1 (configuration not stated)
  5 | 4 | 0.9 | -1.2
COc1ccccc1S(=O)(=O)N[C@@H]1CC[C@@H](CC(=O)N2CCOCC2)O[C@H]1CO
  2 | 2 | -1.0 | -0.8
CC(C)C#Cc1cnc2c(c1)C(=O)N([C@H](C)CO)C[C@H](C)[C@@H](CN(C)C(=O)CCN1CCCCC1)O2
  3 | 0 | -0.6 | -0.1
COC(=O)C[C@@H]1CC[C@H]2[C@@H](COc3ccc(NC(=O)c4cccc(OC)c4)cc3C(=O)N2C)O1
  4 | -2 | -0.8 | 0.6
CN1C(=O)c2cc(NC(=O)C3CCCC3)ccc2OC[C@H]2O[C@H](CC(=O)O)CC[C@@H]21
  2 | 13 | -1.7 | -1.2
C[C@@H]1CN([C@H](C)CO)C(=O)c2cccc(N(C)C)c2O[C@H]1CN(C)Cc1ccc2c(c1)OCO2
  4 | -2 | 0.7 | -0.7

Record cards, as listed above. Screens in order: Ecoli rRNA inh | Ecoli rRNA inh OD600 | Ecoli rRNA inh RFP | AF4-AF9 inh
Profile of COc1ccc(-c2ccc3c(c2)O[C@@H](CN(C)C(=O)Nc2ccccc2F)[C@H](C)CN([C@@H](C)CO)S3(=O)=O)cc1 → -7 | -18 | 0.2 | 2.1
Profile of COC(=O)C[C@@H]1C[C@@H]2c3cc(NC(=O)C4CCOCC4)ccc3O[C@@H]2[C@H](CO)O1 → 2 | -4 | -0.4 | -0.2
Profile of C[C@H](CO)N1C[C@H](C)[C@@H](CN(C)S(C)(=O)=O)Oc2ccc(NS(=O)(=O)c3cccs3)cc2C1=O → 0 | 8 | 0.8 | -1.4
Profile of CC1(C(=O)NCc2ccccc2)Cc2c(-c3cccc(C(F)(F)F)c3)ccnc2O1 (configuration not stated) → -24 | -52 | 3.2 | 1.8
Profile of C[C@H](CO)N1C[C@H](C)[C@H](CN(C)Cc2ccccc2)Oc2cc(-c3ccncc3)ccc2S1(=O)=O → -4 | -8 | 1.1 | 4.9

Not all compounds are listed. The share of hits here may be higher or lower than overall.
